D2 agonist = agonists of human D2 dopamine receptor (beta-arrestin) | P14416 | AID 624465 | DiscoveRx PathHunter D2 beta-arrestin, luminescence, 90 min; 100% = 57 uM dopamine signal | activation, % (no concentration beside the values) | 360,000 tested, 0.084% active; in the data active = activation above about 40%; inconclusive = about 15% to 40%; inactive = below about 15%; note: compound concentration not given in the record; the text of the record calls up to 30% inactive
Target sequence (P14416 whole entry, looked up): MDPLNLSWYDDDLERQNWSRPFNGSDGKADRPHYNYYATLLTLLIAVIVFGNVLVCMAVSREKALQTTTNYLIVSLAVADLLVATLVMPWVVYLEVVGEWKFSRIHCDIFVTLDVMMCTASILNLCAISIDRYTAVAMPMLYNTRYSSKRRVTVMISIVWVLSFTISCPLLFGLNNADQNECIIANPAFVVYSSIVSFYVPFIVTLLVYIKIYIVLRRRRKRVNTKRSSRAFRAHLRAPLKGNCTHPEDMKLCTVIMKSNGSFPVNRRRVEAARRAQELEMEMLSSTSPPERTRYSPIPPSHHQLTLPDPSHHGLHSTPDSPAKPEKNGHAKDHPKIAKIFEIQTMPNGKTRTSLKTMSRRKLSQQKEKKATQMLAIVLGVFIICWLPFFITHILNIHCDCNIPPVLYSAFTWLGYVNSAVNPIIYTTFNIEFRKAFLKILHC
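DiscoveRx PathHunter D2 beta-arrestin cells (2,100/well) attached overnight, then compound-stimulated 90 min at 37 C in HBSS/10 mM HEPES/0.1% Tween-20 buffer; beta-galactosidase complementation read by luminescence after 1 h at ambient temperature. Dopamine 57 uM final (EC100) as control.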
CtBP-E1A blk = CtBP/E1A binding inhibition | AlphaScreen GST-E1A/His-CtBP binding, 1536-well; active compounds read low; control for the full effect not named in the record | activity change, % (test concentration not listed) | 340,000 tested, 0.49% active | AID 651724; in the data active means activity change below about -65%; inconclusive means about -30% to -65%; inactive means above about -30%; note: % is set by controls: 0 for no effect and ±100 for the full control effect
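AlphaScreen with 125 nM GST-E1A and 125 nM His-CtBP (5X stocks) in Tris pH 8.0, 300 mM NaCl, BSA, Tween 20, TCEP. Compounds preincubated 2 h at 37 deg C, then glutathione donor/nickel acceptor beads added for 1 h at 37 deg C in dark.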
PINK1 modulator = changes PINK1 expression. PINK1 immunofluorescence, high-content cytometry, 24 h. AID 624263. Potency, µM (top dose mostly 76.6 µM), without a hit: at the top dose activation (PINK1 increase), usual class: activators. 410,000 tested, 0.2% active; active = well fitted activation curve with a large enough effect; inconclusive = small, poorly fitted or top-dose-only effect; inactive = flat fitted curve, though single readings scatter; cell line not stated here;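 note: potency is the fitted concentration of half-maximal effect; % of control where 0% means no effect; nearly all actives have a fitted effect of over 65% in size; a mitochondrial uncoupler was the plate control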
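Compound titrations (5 concentrations, 24 h) on a stable cell line; DMSO and CCCP controls. Endpoint: fixed-cell PINK1 immunofluorescence with mitochondrial, cell and nuclear markers, scanned by microplate cytometer.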
TRPML1 ag = agonists of human TRPML1 channel. Q9GZU1. TRPML1-expressing cells, Ca2+ dye fluorescence, FDSS; host cell line not named in the record; reference of the full effect not given here. activation, % (concentration not given with the values). 410,000 tested, 0.12% active. AID 624414; in the data active = activation above about 50%; inconclusive = about 30% to 50%; inactive = below about 30%; note: 0% is about no effect; the text of the record puts the active cut at 80%
Target sequence (Q9GZU1 whole entry, looked up): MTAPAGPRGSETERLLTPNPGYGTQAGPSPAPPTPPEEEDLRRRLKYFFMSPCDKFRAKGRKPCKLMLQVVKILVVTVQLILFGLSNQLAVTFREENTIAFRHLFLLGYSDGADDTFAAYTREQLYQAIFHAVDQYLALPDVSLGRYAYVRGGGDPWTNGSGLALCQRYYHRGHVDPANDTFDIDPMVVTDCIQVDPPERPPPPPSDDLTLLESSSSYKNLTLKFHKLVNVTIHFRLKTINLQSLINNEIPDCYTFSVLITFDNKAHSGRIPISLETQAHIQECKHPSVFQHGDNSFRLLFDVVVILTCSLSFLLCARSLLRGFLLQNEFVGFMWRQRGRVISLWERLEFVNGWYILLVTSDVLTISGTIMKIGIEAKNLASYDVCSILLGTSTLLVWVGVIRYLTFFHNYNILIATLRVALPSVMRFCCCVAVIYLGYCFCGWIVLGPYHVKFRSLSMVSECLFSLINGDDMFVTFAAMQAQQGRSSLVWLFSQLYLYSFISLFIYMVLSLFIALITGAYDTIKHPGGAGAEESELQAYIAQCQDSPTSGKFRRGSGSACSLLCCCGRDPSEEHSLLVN
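Tet-induced TRPML1-DL cells, 1,500 per well, cultured overnight, were loaded with a no-wash Ca2+ dye for 45–90 min. Calcium fluorescence was recorded on the FDSS for 110 s after compound addition, before the EC80 agonist (4 uM 54-4) was added.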
D2 potentiator = positive allosteric modulators of human D2 dopamine receptor | potentiation, % (no concentration beside the values) | DiscoveRx D2 beta-arrestin cells, luminescence, 90 min; 100% = 57 uM dopamine signal | 360,000 tested, 0.23% active | P14416; active = potentiation of 50% or more; inconclusive = 30% to 50%; inactive = 30% or less;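 note: compound concentration not given in the record; tested on top of an EC20 dose of dopamine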
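D2 cells co-treated with compound plus 50 nM dopamine (EC20) for 90 min at 37 deg C to detect potentiation. Beta-arrestin recruitment was read as enzyme-fragment luminescence after 1 h at ambient temperature. Full response was set by 57 uM dopamine.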
Six1-Eya2 blk = Six1/Eya2 interaction inhibition. Q15475+O00167. AlphaScreen GST-Six1/His-Eya2 binding, biochemical; active compounds read low; control for the full effect not named in the record. 360,000 tested, 0.56% active. AID 651725. activity change, % (no concentration beside the values); in the data active = activity change below about -65%; inconclusive = about -30% to -65%; inactive = above about -30%; note: % is set by controls: 0 for no effect and ±100 for the full control effect
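GST-Six1 + His-Eya2 (5X stock: 250/500 nM); Tris pH 8.0, 300 mM NaCl, 0.05% BSA, 0.02% Tween 20; GSH donor/Ni acceptor beads; 1 h 37 °C dark; AlphaScreen readout.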
* marks the source's active call; other numbers are inactive results; [ ] = remark or other dose.

What do the screens show for `O=C(COC(=O)c1cc(Br)c(Br)s1)NCCC1=CCCCC1`?
D2 agonist: -3.3; CtBP-E1A blk: 0.7; PINK1 modulator: 3.3%; TRPML1 ag: 2.7; D2 potentiator: -14.5; Six1-Eya2 blk: -1.3

How did CCc1cccc2c(-c3csc(=NC)n3C)c[nH]c12 do in these assays?
D2 agonist: -6.4; CtBP-E1A blk: -11.1; PINK1 modulator: 4.1%; TRPML1 ag: 5.5; D2 potentiator: -5.4; Six1-Eya2 blk: 8.7

Results for CCc1ccc(-c2nc(NC(=S)NC(=O)c3cccs3)sc2C)cc1 ?
D2 agonist: -1.7; CtBP-E1A blk: 1.7; PINK1 modulator: 5.4%[38.3 µM]; TRPML1 ag: -0.4; D2 potentiator: -4.7; Six1-Eya2 blk: 0.9

Results for Cc1noc(C)c1COc1ccc(C(=O)Nc2ncccc2O)cc1 ?
D2 agonist: inconclusive; CtBP-E1A blk: -4.2; PINK1 modulator: 0.4%; TRPML1 ag: -0.6; D2 potentiator: 27.3; Six1-Eya2 blk: -16.9

Results for Cn1c(=O)oc2cc(S(=O)(=O)N3CCC(C(=O)N4CC=C(c5ccccc5)CC4)CC3)ccc21 ?
D2 agonist: -4.0; CtBP-E1A blk: -25.0; PINK1 modulator: -0.3%; TRPML1 ag: 2.2; D2 potentiator: 4.6; Six1-Eya2 blk: -0.2

How did O=C(Nc1cccc(C(F)(F)F)c1)c1ccc2sc([C@@H]3O[C@H](CO)[C@H](O)[C@H](O)[C@H]3O)nc2c1 do in these assays?
D2 agonist: -5.1; CtBP-E1A blk: 2.2; PINK1 modulator: 0.5%; TRPML1 ag: -0.5; D2 potentiator: -10.8; Six1-Eya2 blk: 3.3

How did CCOC(=O)N1CCC(=NNc2ccc(S(=O)(=O)N3CCOCC3)cc2[N+](=O)[O-])CC1 do in these assays?
D2 agonist: 5.7; CtBP-E1A blk: 3.9; PINK1 modulator: -2.3%; TRPML1 ag: -0.8; D2 potentiator: -10.3; Six1-Eya2 blk: -8.7

How did Cc1oc(C(C)(C)C)cc1C(=O)Nc1cccc(/C=C/C(=O)O)c1 do in these assays?
D2 agonist: 1.9; CtBP-E1A blk: -4.0; PINK1 modulator: 0.7%; TRPML1 ag: 1.9; D2 potentiator: -0.1; Six1-Eya2 blk: -2.4

What do the screens show for `CC(NC(=O)c1cn(C)c2ccc(S(=O)(=O)N3CCCC3)cc2c1=O)c1ccc2c(c1)OCCO2` (stereo unspecified)?
D2 agonist: -0.8; CtBP-E1A blk: 3.5; PINK1 modulator: 0.8%; TRPML1 ag: -0.1; D2 potentiator: -4.8; Six1-Eya2 blk: 4.0

What do the screens show for `CNc1nc(-c2ccc3c(c2)CCN3S(=O)(=O)c2ccccc2)c(C)s1`?
D2 agonist: -0.2; CtBP-E1A blk: -5.3; PINK1 modulator: 2.0%; TRPML1 ag: -0.3; D2 potentiator: -5.7; Six1-Eya2 blk: -21.0

What do the screens show for `CC(=O)c1ccc(NC(=O)CSc2ccsc2[N+](=O)[O-])cc1`?
D2 agonist: -4.3; PINK1 modulator: 2.3%; TRPML1 ag: 0.5; D2 potentiator: -7.7; Six1-Eya2 blk: 0.5

What do the screens show for `COc1ccc(C(=O)Nc2cccc(-c3ccc4nncn4n3)c2)cc1`?
D2 agonist: -2.2; CtBP-E1A blk: -1.3; PINK1 modulator: 11.3%; TRPML1 ag: 1.9; D2 potentiator: -1.4; Six1-Eya2 blk: -8.0

Results for Cc1ccc(-c2nnn(CC(=O)N(c3cccc(F)c3)C(C(=O)NC3CCCC3)c3ccncc3)n2)o1 (stereo unspecified) ?
D2 agonist: -1.0; CtBP-E1A blk: 2.4; PINK1 modulator: 2.0%; TRPML1 ag: -0.8; D2 potentiator: -3.1; Six1-Eya2 blk: 7.3

Results for O=C(c1ccc[nH]1)N1O[C@@H]2C=C[C@H]1C2 ?
D2 agonist: 0.9; CtBP-E1A blk: -0.6; PINK1 modulator: -0.1%; TRPML1 ag: -0.7; Six1-Eya2 blk: -0.5

What do the screens show for `CC(OC(=O)CCCc1nc2ccccc2s1)C(=O)NC(N)=O` (stereo unspecified)?
D2 agonist: -0.5; CtBP-E1A blk: 6.5; PINK1 modulator: 1.3%; TRPML1 ag: 0.2; D2 potentiator: -3.2; Six1-Eya2 blk: 8.9

How did CCCN1CCN(C(=O)Nc2cccc(C(F)(F)F)c2)CC1 do in these assays?
D2 agonist: -3.2; CtBP-E1A blk: 0.0; PINK1 modulator: -0.9%; TRPML1 ag: 0.3; D2 potentiator: -15.2; Six1-Eya2 blk: 0.2

What do the screens show for `O=S(=O)(NCC(O)c1ccccc1)c1ccc(-c2ccccn2)s1` (stereo unspecified)?
D2 agonist: 5.4; CtBP-E1A blk: 2.9; PINK1 modulator: 0.2%; TRPML1 ag: 0.9; D2 potentiator: -3.2; Six1-Eya2 blk: 0.1

Results for Cc1onc(-c2c(Cl)cccc2Cl)c1C(=O)NC(=S)N1CCOCC1 ?
D2 agonist: -7.3; CtBP-E1A blk: 6.6; PINK1 modulator: 0.8%; TRPML1 ag: 2.7; D2 potentiator: -13.1; Six1-Eya2 blk: 10.3

What do the screens show for `CC(C(=O)Nc1ccc(S(=O)(=O)N2CCCC2)cc1)N(C)CC(=O)Nc1cccc(F)c1` (stereo unspecified)?
D2 agonist: -2.9; CtBP-E1A blk: -1.0; PINK1 modulator: 0.6%; TRPML1 ag: -0.1; D2 potentiator: -2.8; Six1-Eya2 blk: -5.4

How did CCCCCCCCCCCCCCCC(O)C[N+](C)(C)CCO (stereo unspecified) do in these assays?
D2 agonist: -5.7; CtBP-E1A blk: 0.2; PINK1 modulator: -1.7%; TRPML1 ag: 8.0; D2 potentiator: -21.2; Six1-Eya2 blk: 4.2

What do the screens show for `O=[N+]([O-])c1c(NCCCO)cc(Sc2nc3ccccc3s2)c2nonc12`?
D2 agonist: -6.5; CtBP-E1A blk: 0.0; PINK1 modulator: 17.0%[38.3 µM]; TRPML1 ag: 1.5; D2 potentiator: -27.0; Six1-Eya2 blk: inconclusive

How did O=C(Nc1nnc(COc2ccccc2)s1)C1CCN(S(=O)(=O)c2ccc(Cl)cc2)CC1 do in these assays?
D2 agonist: -1.4; CtBP-E1A blk: 4.7; PINK1 modulator: 24.0%[38.3 µM]; TRPML1 ag: 1.5; D2 potentiator: -0.1; Six1-Eya2 blk: 2.2

How did CC(C)(C)c1ccc(OC2=CS(=O)(=O)c3ccccc32)cc1 do in these assays?
D2 agonist: -1.9; CtBP-E1A blk: 10.6; PINK1 modulator: -0.1%; TRPML1 ag: 1.7; D2 potentiator: -17.4; Six1-Eya2 blk: -1.5

What do the screens show for `O=C(OCn1ncc(Br)c(Br)c1=O)c1ccccc1Cl`?
D2 agonist: -2.0; CtBP-E1A blk: 7.5; PINK1 modulator: -1.0%; TRPML1 ag: 0.1; D2 potentiator: -27.3; Six1-Eya2 blk: -10.9

What do the screens show for `S=c1[nH]cc(-c2ccc(Cl)cc2)n1-c1ccccc1`?
D2 agonist: 0.1; CtBP-E1A blk: 6.7; PINK1 modulator: inconclusive; TRPML1 ag: -0.7; D2 potentiator: -34.8; Six1-Eya2 blk: 13.5

How did Cc1cccnc1NC(=S)NC(=O)/C=C/c1ccco1 do in these assays?
D2 agonist: -4.4; CtBP-E1A blk: 23.6; PINK1 modulator: -0.7%; TRPML1 ag: -0.2; D2 potentiator: 0.7; Six1-Eya2 blk: 14.6

How did O=C(NCCCc1nc2ccccc2[nH]1)c1ccc(F)cc1 do in these assays?
D2 agonist: -8.2; CtBP-E1A blk: 2.4; PINK1 modulator: 0.0%; TRPML1 ag: -0.5; D2 potentiator: -19.3; Six1-Eya2 blk: 12.3

Results for Cc1ccc(-c2nn(C)c(=O)c3ccccc23)cc1CNC(=O)NC1CCCCC1 ?
D2 agonist: -1.0; CtBP-E1A blk: -5.5; PINK1 modulator: 1.4%; TRPML1 ag: 1.2; D2 potentiator: -17.9; Six1-Eya2 blk: 16.5

How did Cc1c(C(=O)NCc2ccc(S(N)(=O)=O)cc2)oc2ccc(Cl)cc12 do in these assays?
D2 agonist: -2.8; CtBP-E1A blk: 6.8; PINK1 modulator: 2.9%; TRPML1 ag: 1.7; D2 potentiator: -3.6; Six1-Eya2 blk: 1.9

How did CC(C)(CO)NS(=O)(=O)c1ccc2c(c1)Cc1cc(S(=O)(=O)NC(C)(C)CO)ccc1-2 do in these assays?
D2 agonist: 5.7; CtBP-E1A blk: -3.2; PINK1 modulator: -0.2%; TRPML1 ag: 1.2; D2 potentiator: -3.6; Six1-Eya2 blk: -21.0

Results for C=CCn1c(Cc2cccs2)nnc1SCC(=O)NC1CC1 ?
D2 agonist: -2.0; CtBP-E1A blk: -3.2; PINK1 modulator: -1.6%; TRPML1 ag: 0.6; D2 potentiator: -3.7; Six1-Eya2 blk: -2.3

Results for O=C(Nc1ccccc1)c1cc(C2CCCCN2C(=O)c2ccccc2)on1 (stereo unspecified) ?
D2 agonist: -3.4; CtBP-E1A blk: 1.0; PINK1 modulator: 0.4%; TRPML1 ag: -1.0; D2 potentiator: -4.2; Six1-Eya2 blk: -1.6

Results for CCn1c(C)nc2cc(C(=O)NNC(=S)Nc3ccccc3Cl)ccc21 ?
D2 agonist: -3.7; CtBP-E1A blk: -7.4; PINK1 modulator: -2.6%; TRPML1 ag: 1.0; D2 potentiator: -24.5; Six1-Eya2 blk: 1.9

How did CC(C)CNC(=O)C(=O)Nc1ccc2c(c1)N(S(=O)(=O)c1cccs1)CCC2 do in these assays?
D2 agonist: -5.8; CtBP-E1A blk: -6.9; PINK1 modulator: 5.6%; TRPML1 ag: 2.7; D2 potentiator: -1.8; Six1-Eya2 blk: 0.1

What do the screens show for `CN(C(=O)COC(=O)C1CCN(S(=O)(=O)c2c(Cl)cccc2Cl)CC1)C1CCCCC1`?
D2 agonist: 2.1; CtBP-E1A blk: 0.0; PINK1 modulator: 2.3%; TRPML1 ag: 0.8; D2 potentiator: 2.9; Six1-Eya2 blk: 8.0

What do the screens show for `CC(CCc1ccco1)NC(=O)Cn1ncc2c(=O)oc3ccccc3c21` (stereo unspecified)?
D2 agonist: -1.4; CtBP-E1A blk: 0.3; PINK1 modulator: -0.8%; TRPML1 ag: 0.2; D2 potentiator: -1.5; Six1-Eya2 blk: 3.2

How did Cc1ccc(CO/N=C\Cc2snc(Sc3ncc(C(F)(F)F)cc3Cl)c2C#N)cc1 do in these assays?
D2 agonist: 2.1; CtBP-E1A blk: -6.3; PINK1 modulator: 0.5%; TRPML1 ag: 0.3; D2 potentiator: 10.6; Six1-Eya2 blk: -1.5

How did COc1ccc2c(-c3cccnc3)cc(=O)[nH]c2c1 do in these assays?
D2 agonist: -0.6; CtBP-E1A blk: 2.2; PINK1 modulator: -0.4%; TRPML1 ag: -0.5; D2 potentiator: 7.9; Six1-Eya2 blk: -0.5

Compound activity deposited in PubChem by National Center for Advancing Translational Sciences (NCATS).
